Screening results from PubChem.
Ba CapD inh: Bacillus anthracis CapD inhibitors, primary screen, biochemical, fluorescence intensity; purified CapD enzyme, fluorescence intensity read-out; active compounds read low; some hits fall short of the stated cut; hit rate 0.23% among 140,000; z-score (test concentration not listed);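 active = z-score under -4 in either of two replicates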;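 also: stock transfer was 100 nL into about 40 µL; score is relative to mean and spread of the plate; one replicate is shown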
AID504770: growth inhibition of E. coli YBA685, primary screen, V. cholerae RctB inhibitors; E. coli YBA685 rctB-dependent plasmid, OD600 growth, 3 h; active compounds read low; z-score (no concentration beside the values); hit rate 0.27% among 130,000; AID 504770, 2011;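 active = z-score under -2 on both plates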;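 also: wells of about 30 µL received 100 nL stock; score is relative to mean and SD of the test wells; the first replicate is given; strong numbers were not always called active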
An asterisk follows results filed as active; . = not tested or not shown.

The opening five records (preview)
Every second line gives: Ba CapD inh	AID504770
Cc1cccc(OCCSc2nc3ccccc3n2CC(O)CO)c1 (stereo not drawn)
    -0.46	.
CCC(C(=O)NC1CCN(C)CC1)c1ccccc1 (stereo not drawn)
    0.86	0.25
O=C(Cc1n[nH]c(=O)c2ccccc12)NCCc1ccccn1
    .	0.7
Cc1nc2c3cc(F)ccc3n(C)c2s1
    .	-0.1
CC(=O)Nc1ccc(C(C)C)cc1
    -0.33	.

The list itself, from the first entry:
Every second line gives: Ba CapD inh	AID504770
Cc1cccc(OCCSc2nc3ccccc3n2CC(O)CO)c1 (stereo not drawn)
    -0.46	.
CCC(C(=O)NC1CCN(C)CC1)c1ccccc1 (stereo not drawn)
    0.86	0.25
O=C(Cc1n[nH]c(=O)c2ccccc12)NCCc1ccccn1
    .	0.7
Cc1nc2c3cc(F)ccc3n(C)c2s1
    .	-0.1
CC(=O)Nc1ccc(C(C)C)cc1
    -0.33	.
CC(C)CCOc1ccc(C(=O)C(C)C)cc1
    0.45	-0.1
Cc1ccc(CCNC(=O)c2cc(=O)[nH]c3ccc(S(=O)(=O)N4CCCC4)cc23)cc1
    -0.89	-0.1
Cc1csc2nc(O)c(C(=O)NCCCN3CCOCC3)c(=O)n12
    .	0.1
CCOC(=O)NC1C=CS(=O)(=O)C1 (stereo not drawn)
    -0.39	-0.65
O=c1c2ccccc2nnn1CSc1ncnc2sccc12
    .	0.5
CCC(c1nnc(SCC(=O)c2ccccc2)n1Cc1ccccc1)N(C)C (stereo not drawn)
    .	0.2
O=C(NCc1ccco1)c1ccccc1
    .	-0.65
COc1ccc(N2C(=O)CSC2c2ccccc2Br)cc1Cl (stereo not drawn)
    -0.67	.
C=CCn1c(SCC(=O)Nc2sc(C(=O)OC)c(C)c2C(=O)OC)nc2ccccc21
    .	-0.8
Cc1cc(C)nc(Oc2ccc(Br)cc2Br)n1
    .	-0.6
COc1ccc(C2/C(=C(\O)c3ccc(Br)cc3)C(=O)C(=O)N2c2ccccn2)cc1 (stereo not drawn)
    -0.25	.
COc1cc(-c2nn(CN3CC(C)OC(C)C3)c(=S)o2)cc(OC)c1OC (stereo not drawn)
    .	0.85
Cc1ccnc(NCc2ccc(Cl)cc2)c1
    0.77	-0.45
Cc1ccc(O)c(C(C)(C)C)c1
    0.52	-0.85
Nc1sc2c(c1-c1nc3ccccc3[nH]1)CCCC2
    0.62	0.15
Cc1cc(N)n(C2CCOC(C)(C)C2)n1 (stereo not drawn)
    0.87	-0.25
CCOC(=O)c1c(Nc2ccccc2N)cc(C)nc1C
    -0.21	-0.1
COc1ccc2[nH]cc(CCNC(=O)OCCc3ccc(Cl)cc3)c2c1
    1	.
O=S(=O)(c1cc(Cl)ccc1Cl)N1CCN(Cc2ccccc2)CC1
    0.085	.
O=C(COC(=O)C12CCC(=O)N1c1ccccc1C(=O)N2C1CC1)Nc1ncc(Cl)cc1Cl (stereo not drawn)
    .	2.6
O=C(OCCOc1ccccc1)c1ccc(-n2cnnn2)cc1
    .	-0.15
CC1CCCCC1NC(=O)c1ccc(CS(=O)(=O)c2cccc(C(F)(F)F)c2)o1 (stereo not drawn)
    0.11	-0.75
O=C(c1c[nH]c2ccc(S(=O)(=O)N3CCC4(CC3)OCCO4)cc2c1=O)N(CCc1ccccc1)Cc1ccccc1
    1.9	.
O=C(OCC(=O)N1CCCCC1)c1ccc(O)cc1
    -0.46	0.65
Cc1nc2nc(C)n(-c3ccccc3)c2s1
    0.25	-0.95
N#Cc1cn(-c2ccccc2)nc1-c1cccs1
    0.18	-0.25
Cc1ccc(N2C(=O)SC(N(C)c3ccccc3)C2=O)cc1 (stereo not drawn)
    .	0.15
COc1cc(-c2[nH]nc3c2C(c2ccc4c(c2)OCO4)C(C#N)=C(N)O3)cc(OC)c1OC (stereo not drawn)
    -0.47	.
COc1cccc(C(=O)N2CCN(C(=O)c3cc(OC)cc(OC)c3)CC2)c1
    -0.67	-0.5
CC1=NN(c2ccccc2)C(=O)C1/C=C1\C(=O)NC(=O)N(c2ccc(C)cc2)C1=O (stereo not drawn)
    -1.2	.
COc1cc(Cl)c(NC(=O)CCn2ccc(C)n2)c(OC)c1
    -0.66	-0.65
COc1ccc(OS(=O)(=O)c2sc(Br)cc2Br)cc1
    0.76	.
O=C(CSc1nnc2ccccn12)N1CCCC1
    .	1.2
O=C(c1ccc(Nc2nc3ccccc3n3cnnc23)cc1)N1CCN(C2CCCCC2)CC1
    0.73	-0.55
C=CCN(CC(=O)N1CCN(c2ccccc2)CC1)S(=O)(=O)c1ccccc1C(F)(F)F
    .	2.2
Cc1ccc2oc(=O)c(C(=O)O)cc2c1
    6.9	-1.2
O=C(NC1CCCCC1)C1c2ccccc2C(=O)N1Cc1ccc2c(c1)OCO2 (stereo not drawn)
    1.1	0.15
CC(=O)Nc1ccc(N2C(=O)CS(=O)(=O)C2c2ccccc2[N+](=O)[O-])cc1 (stereo not drawn)
    0.055	.
COc1cc(CNC(=O)C2CCCC2)cc(OC)c1OC
    0.33	-0.65
COC(=O)C1CC(OCc2ccccc2)CN1C(=O)OCC1CCCN(Cc2ccc3ccccc3c2)C1 (stereo not drawn)
    -0.97	.
COc1ccc(N2CC(C(=O)NC3=NCCS3)CC2=O)cc1 (stereo not drawn)
    .	0.95
CCN1C(=O)CC(c2cc(OC)c(OC)c(OC)c2)Sc2ccccc21 (stereo not drawn)
    -0.28	-0.15
CC(C)(C)c1ccc(COCCn2cc(-c3ccncn3)cn2)cc1
    -0.47	.
CS(=O)(=O)c1cnc(-c2ccccn2)nc1-c1ccccc1
    -1	.
COc1ccc(/C(C)=N/N=C/c2cc(OC)c(OC)c(OC)c2)cc1
    -0.68	.
CCN(C(=O)Cn1c(=O)oc2ccccc21)c1cccc(C(F)(F)F)c1
    0.4	.
Cc1nnsc1C(=O)N1CCC(C(=O)c2ccccc2)CC1
    -0.32	-0.35
CCOC(=O)C1=C(C)NC(SC)=C(C#N)C1c1ccccc1 (stereo not drawn)
    1.7	.
COc1ccc(C2=NN(C(=O)c3cccs3)C(c3ccccc3Cl)C2)cc1OC (stereo not drawn)
    16	.
COC(=O)c1sccc1NC(=O)c1ccccc1Cl
    -0.6	.
CCOC(=O)c1c(C)[nH]c(C(=O)CN2C(=O)CCC2=O)c1C
    .	-1
O=C1CCCC(O)=C1C1=NC2(CCCCCC2)Cc2ccccc21
    -0.19	.
Cc1c(-c2nnnn2-c2ccc(F)cc2)cnc2cc3c(cc12)OCO3
    48	0.1
O=C(CSc1ncccn1)N/N=C/c1ccc2c(c1)OCO2
    -0.035	0.9
CCOC(=O)c1c(N)sc2c1CCCS2
    .	0.85

(list continues)
Every second line gives: Ba CapD inh	AID504770
COc1ccccc1/C=C/C=NN1CCN(Cc2ccccc2)CC1
    -1.2	1.1
O=C1C=C(c2ccc(Cl)cc2)C(=O)N1Nc1ccc(Cl)cc1Cl
    -0.4	.
CN(Cc1cccs1)C(=O)C1CC(=O)N(c2ccc3c(c2)OCCO3)C1 (stereo not drawn)
    .	-0.5
O=C(c1c(F)cccc1F)N1CCCCC1Cn1cccc1 (stereo not drawn)
    0.1	0
CC1=C(C#N)c2nc(N)c(C#N)c(C)c2/C1=C\c1ccc(-c2ccc(C(=O)O)cc2)o1
    1.6	.
CC1(C)CC(=O)C/C(=N\NC(=O)CCC(=O)Nc2ccccc2)C1
    0.37	0
O=C(NCc1ccccc1)c1nc[nH]c1C(=O)NCc1ccccc1
    .	0.25
COc1cccc(CC(=O)Nc2cccc(OC)c2)c1
    .	0.3
Cc1[nH]nc2c1C1(C(=O)N(C)c3ccccc31)C(C#N)=C(N)O2 (stereo not drawn)
    -0.3	-0.25
CS(=O)(=O)c1ccc(-n2cc(-c3ccc(C(=O)NCC4CCCO4)cn3)cn2)cc1 (stereo not drawn)
    18	.
Cc1ccc(S(=O)(=O)N2CCC(NC(=O)N3CCCC3)CC2)cc1
    0.015	.
O=C1C=C(Nc2ccc3c(c2)OCO3)CC2(CCCCC2)C1
    .	-0.4
CC1(C)Cc2nc3c(N)n[nH]c3cc2CO1
    0.96	.
Cc1ccc(NC(=O)CSC(C)C(=O)O)cc1 (stereo not drawn)
    .	-0.45
CCCC(=O)c1cc(-c2nc3ccccc3n2C)n(C)c1
    3.7	-0.55
Cc1nc(-c2nnc(SCc3ccc(C(F)(F)F)cc3)o2)cs1
    -0.34	-0.3
CCOc1cc(C=C2C(=O)NC(=S)NC2=O)cc(Br)c1OCc1ccc(Cl)cc1
    2.2	-0.45
CCNCC(=O)Nc1ccc2c(c1)OCCO2
    .	-1.3
O=C(NCCN1CCOCC1)c1n[nH]c(=O)c2ccccc12
    .	-0.6
O=C(COc1ccccc1)c1c[nH]c2ccccc12
    0.81	0.6
O=C1C2C(c3ccc(F)cc3F)OC3(C(=O)c4ccccc4C3=O)C2C(=O)N1c1ccc(Cl)cc1 (stereo not drawn)
    -0.09	.
N#Cc1ccccc1NC(=O)CCCC(=O)O
    -0.15	0.55
O=C(Nc1ccc(Cl)cc1)N1CCC(c2nc(-c3ccc(F)cc3)no2)CC1
    .	0.85
Cc1onc(-c2ccccc2)c1C(=O)c1ccc(F)cc1
    0.29	0.2
Cn1nc(N)c2c1N=P(N1CCOCC1)(N1CCOCC1)N=C2c1ccccc1
    .	-1.6
Nc1c(-c2ccc(F)cc2)cnc2ncnn12
    -0.035	0.1
CN(C)CCC(Oc1ccc(C(F)(F)F)cc1)c1ccc(S(C)(=O)=O)cc1 (stereo not drawn)
    -0.39	.
O=[N+]([O-])/C=C/c1cccc([N+](=O)[O-])c1
    1.6	.
C=CCN1C(=O)S/C(=C\c2cn(CC(=O)N3CCOCC3)c3ccccc23)C1=O
    0.89	-0.2
CCN1C(=O)OC2(CCCCC2)C1(C)O (stereo not drawn)
    -0.15	.
CCOC(=O)c1csc(C2COc3ccccc3O2)n1 (stereo not drawn)
    -0.26	-0.65
CCCN1CCC(N(C(=O)CCC(=O)N2CCOCC2)C2CC2)CC1
    -0.025	.
COc1ccc(N(C(=O)C(F)(F)F)C(C(=O)NC2CCCCC2)c2ccc(C)o2)cc1 (stereo not drawn)
    0.71	-0.25
CCCOc1ccc(CN(CCC)C(=S)NC)cc1OC
    .	-0.55
O=C(NCC1CC1)Nc1ccc(Cl)cc1
    0.32	0.6
NNc1nc2ccc(Cl)cc2s1
    .	0
COc1cccc2cc(-c3nnc(Nc4cc(C(F)(F)F)ccc4Cl)s3)c(=O)oc12
    0.23	.
O=C(N[C@@H](CO)[C@H](O)c1ccc([N+](=O)[O-])cc1)C(Cl)Cl
    .	-2.7*
O=C(Nc1ccc(OC(F)(F)F)cc1)c1cc([N+](=O)[O-])ccc1N1CCN(Cc2ccccc2)CC1
    -0.73	.
O=C(O)C1Cc2ccccc2O1 (stereo not drawn)
    .	-0.2
COC(=O)c1cc2nc3c(c(C(F)(F)F)n2n1)CCc1ccccc1-3
    0.43	0.05
CCOC(=O)CCc1ccc2c(c1)NC(c1ccc(N(C)C)cc1)O2 (stereo not drawn)
    -0.07	2
Cc1noc(C)c1COc1cccc(C(=O)N2CCC(C(N)=O)CC2)c1
    .	-0.05
Fc1ccc(-c2nc3ncccc3o2)cc1
    7	-0.7
O=C(NC1Cc2ccccc2C1)C1CCCCC1
    0.3	.
Cc1cc(Oc2ccc(Cl)cc2)c2ccccc2n1
    -0.17	.
Cc1c(C(=O)OCC(C)C)[nH]c2c1C(=O)CC(c1ccc(F)cc1)C2 (stereo not drawn)
    0.075	-0.05
CCOC(=O)c1nnn(-c2nonc2N)c1CNC(C)C
    -0.29	.
CC(=O)Oc1cccc2c1OCCO2
    -0.32	-0.75
O=S(=O)(Nc1nnc(-c2ccc(Cl)cc2)o1)c1ccc2c(c1)OCCO2
    .	-1.1
O=C1CC(N2CCN(S(=O)(=O)c3cccs3)CC2)C(=O)N1CCc1ccccc1 (stereo not drawn)
    .	-0.2
CC(C)n1nc(C(C)(C)C)cc1C(C)(C)C
    -0.56	2.5
COc1ccc(-c2nc3cnccn3c2NCc2ccc3c(c2)OCO3)cc1CN1CCOCC1
    .	-0.65
COc1ccc(/C=C2\CC/C(=C\c3ccc(OC)cc3)C2=O)cc1
    0.01	.
Cc1nc(=O)c(-c2ccccc2)c(C)n1-c1cccc(/C=C/C(=O)O)c1
    -0.45	0.85
COc1ccccc1NC(=O)Cc1noc(COC(=O)c2c(F)cccc2Cl)n1
    .	-0.45
O=C(O)c1cccc(S(=O)(=O)Nc2ccc(O)cc2)c1
    .	0
CN1CCC(N(C)CC(O)COc2ccccc2-c2ccccc2)CC1 (stereo not drawn)
    -0.015	-1.4
O=C(NC1CCN(Cc2ccccc2)CC1)c1ccc(CS(=O)(=O)c2c(Cl)cccc2Cl)o1
    -0.81	-0.25
O=C(Nc1ccc2oc(-c3ccccc3)nc2c1)c1cc([N+](=O)[O-])ccc1Br
    0.26	.

Entries of single compounds as entered above. Order of screens: Ba CapD inh | AID504770
Results for O=C(Nc1ccc2oc(-c3ccccc3)nc2c1)c1cc([N+](=O)[O-])ccc1Br : 0.26 | .
Results for O=C(NC1Cc2ccccc2C1)C1CCCCC1 : 0.3 | .

Other structures
Every second line gives: Ba CapD inh	AID504770
CN=C(Nc1ccc(Cl)c(Cl)c1)c1ccco1
    .	-0.4
CCN(CC)CC(=O)N1CCCC1=O
    .	-0.25
O=C(OCc1c(F)cccc1Cl)c1ccco1
    -0.15	1.6
N#Cc1ccc(COC(=O)c2cccnc2Cl)cc1
    0.6	-0.1
